TRPML1 ag: qHTS for Agonists of the Human Mucolipin Transient Receptor Potential 1 (TRPML1); TRPML1-expressing cells, Ca2+ dye fluorescence, FDSS; host cell line not named in the record; reference of the full effect not given here; 410,000 tested, 0.12% active; activation, % (concentration not given with the values); AID 624414, 2012; in the data active = activation above about 50%; inconclusive = about 30% to 50%; inactive = below about 30%; also: 0% is about no effect; the text of the record puts the active cut at 80%
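Cells: TRPML1-DL, 1X Tet inducer, ~16 h at 37 degrees C/5% CO2. Dye: ABD Ca8 no-wash + quencher, 45-90 min RT. Read: 10 s baseline, compound add, 110 s agonist phase; 54-4 EC80 (4uM final), 110 s antagonist phase.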
D2 PAM: Beta-Arrestin HTS for Positive Allosteric Modulators of the Human D2 Dopamine Receptor: Potentiators; AID 624464, 2012; 360,000 tested, 0.23% active; D(2) dopamine receptor (Homo sapiens), P14416; potentiation, % (concentration not given with the values); DiscoveRx D2 beta-arrestin cells, luminescence, 90 min; 100% = 57 uM dopamine signal; active = potentiation of 50% or more; inconclusive = 30% to 50%; inactive = 30% or less;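 also: compound concentration not given in the record; tested on top of an EC20 dose of dopamine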
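D2 cells co-treated with compound plus 50 nM dopamine (EC20) for 90 min at 37 deg C to detect potentiation. Beta-arrestin recruitment was read as enzyme-fragment luminescence after 1 h at ambient temperature. Full response was set by 57 uM dopamine.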
TRPV1 PAM: HTS Assay for Compounds that Act as Potentiators of the Vanilloid Receptor 1; potentiation, % at 8.33 µM; 320,000 tested, 0.02% active; TRPV1-expressing cells, Fluo-8 calcium influx, capsaicin EC20 potentiation; host cell line not named in the record; control for the full effect not named in the record; AID 540277, 2011; Transient receptor potential cation channel subfamily V member 1 (Homo sapiens), Q8NER1; active means potentiation above 80%; inconclusive means 30% to 80%; inactive means below 30%; also: 0% is about no effect
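TRPV1-expressing cells were cultured overnight at 35.5C and loaded with Fluo-8 calcium dye for 40 to 90 min at room temperature. After a 10 s baseline, compound was added and calcium influx was read kinetically for 3 min (ex 480/em 520 nm).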
TRPML1 blocker: qHTS for Inhibitors of the Human Mucolipin Transient Receptor Potential 1 (TRPML1) | Mucolipin-1 (Homo sapiens), Q9GZU1 | TRPML1-inducible cells, Ca2+ dye fluorescence, FDSS; hits give low values; inhibition of EC80 agonist-evoked calcium signal | activity change, negative = inhibition, % (concentration not given with the values) | 390,000 tested, 0.02% active; in the data active means activity change below about -50%; inconclusive means about -30% to -50%; inactive means above about -30%;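 also: stimulus is agonist 54-4 at its EC80 concentration; % is scaled to controls: 0 for no effect and ±100 for the full control effect; compound concentration not given in the record; the text of the record puts the active cut at -80%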
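Calcium fluorescence in TRPML1-DL cells induced overnight with Tet: a 110 s read after compound pin addition, then a 110 s antagonist read after challenge with 54-4 at 4 uM final (EC80).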
CtBP-E1A inh: qHTS Assay for Inhibitors of the CtBP/E1A Interaction. AID 651724, 2012. AlphaScreen GST-E1A/His-CtBP binding, 1536-well; hits give low values; control for the full effect not named in the record. 340,000 tested, 0.49% active. CtBP / adenovirus E1A interaction (AlphaScreen). activity change, % (no concentration beside the values); in the data active means activity change below about -65%; inconclusive means about -30% to -65%; inactive means above about -30%; also: % is scaled to controls: 0 for no effect and ±100 for the full control effect; compound concentration not given in the record
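GST-E1A and His-tagged CtBP (125 nM each as 5X stock) were preincubated with pin-transferred compound for 2 h at 37 °C in the dark, then glutathione donor and nickel acceptor beads were added for 1 h before AlphaScreen reading.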
Six1-Eya2 blk: qHTS Assay for Inhibitors of the Six1/Eya2 Interaction. AlphaScreen GST-Six1/His-Eya2 binding, biochemical; hits give low values; control for the full effect not named in the record. AID 651725, 2012. activity change, % (test concentration not listed). 360,000 tested, 0.56% active. Homeobox protein SIX1 (Homo sapiens) + Protein phosphatase EYA2 (Homo sapiens), …; in the data active = activity change below about -65%; inconclusive = about -30% to -65%; inactive = above about -30%; also: % is scaled to controls: 0 for no effect and ±100 for the full control effect; compound concentration not given in the record
Target sequence (O00167 whole entry, looked up): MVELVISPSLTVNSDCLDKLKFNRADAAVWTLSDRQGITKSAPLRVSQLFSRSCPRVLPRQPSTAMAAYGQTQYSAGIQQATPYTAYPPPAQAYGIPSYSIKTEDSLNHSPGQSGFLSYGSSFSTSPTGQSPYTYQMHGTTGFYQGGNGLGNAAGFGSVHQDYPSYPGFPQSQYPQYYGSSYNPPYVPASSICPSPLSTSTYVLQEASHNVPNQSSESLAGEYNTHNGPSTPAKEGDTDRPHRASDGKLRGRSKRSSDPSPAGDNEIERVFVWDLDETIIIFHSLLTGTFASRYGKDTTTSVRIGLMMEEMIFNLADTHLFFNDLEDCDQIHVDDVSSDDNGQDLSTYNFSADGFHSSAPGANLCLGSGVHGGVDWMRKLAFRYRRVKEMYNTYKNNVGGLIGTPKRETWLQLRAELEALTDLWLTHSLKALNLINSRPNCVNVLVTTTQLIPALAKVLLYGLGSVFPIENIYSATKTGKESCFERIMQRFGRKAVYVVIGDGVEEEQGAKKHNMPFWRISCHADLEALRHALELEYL
Target sequence (Q15475 whole entry, looked up): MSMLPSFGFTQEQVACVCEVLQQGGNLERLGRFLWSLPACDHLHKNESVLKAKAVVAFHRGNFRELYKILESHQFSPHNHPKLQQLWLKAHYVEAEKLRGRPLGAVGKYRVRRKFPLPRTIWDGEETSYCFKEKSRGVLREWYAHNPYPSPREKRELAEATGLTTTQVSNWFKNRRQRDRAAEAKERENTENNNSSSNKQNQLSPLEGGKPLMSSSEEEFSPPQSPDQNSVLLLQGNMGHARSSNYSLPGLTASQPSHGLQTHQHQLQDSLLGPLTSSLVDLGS
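Homogeneous AlphaScreen proximity assay pairing GST-Six1 with His-tagged Eya2 (added as 5X mix: 250 nM and 500 nM) in 50 mM Tris pH 8.0, 300 mM NaCl, 1 mM TCEP. Glutathione donor and nickel acceptor beads; 1 h, 37 °C, dark.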
An asterisk follows results filed as active; u = inconclusive; x = no result given.

molecule,CtBP-E1A inh,Six1-Eya2 blk,TRPML1 blocker,TRPV1 PAM,D2 PAM,TRPML1 ag
COC(=O)CN1C(=O)Nc2ccc(Br)cc2C1c1ccccc1 (stereo unspecified),-2,-1,-3,1,-11,4.4
CCCCCCSc1cc(-c2nc3cnccn3c2NCCCC)ccc1OC,27,18,-1,x,-4,1.6
COc1ccc(-c2cc(=O)oc3cc(OCC(=O)Nc4ccc(CCO)cc4)ccc23)cc1,-18,3,18,-19,-15,1.2
O=C1c2ccccc2NC(c2ccc(Cl)cc2Cl)N1Cc1ccccc1 (stereo unspecified),6,0,33,8,-9,1.2
COc1ccc(CN2C[C@@H](CO)O[C@@H](n3cnc4c(N5CCOCC5)ncnc43)C2)cc1,0,-8,x,x,-3,-0.2
Cc1ccc(S(=O)(=O)Cn2nnnc2C(c2ccccn2)N2CCN(c3ccccc3)CC2)cc1 (stereo unspecified),0,-16,-5,6,-8,1.0
CC(=O)CSc1nnc(CN2C(=O)CSc3ccc(C(F)(F)F)cc32)n1C,x,-4,43,7,-1,0.2
Cc1ccccc1NC(=O)N1CCC(NC(=O)C2CCCCC2)CC1,0,13,9,-3,-7,-1.0
Cc1nc(N2CCOCC2)nc(N2CCCC2)c1[N+](=O)[O-],5,-15,37,-8,-4,0.5
Cc1ccc(-c2nn3c(-c4ccco4)nnc3c3ccccc23)cc1S(=O)(=O)NCC1CCCO1 (stereo unspecified),8,-1,12,1,1,0.4
CCOC(=O)c1c(NC(=O)CN2CCN(C(=O)C3CCCO3)CC2)sc(C)c1C (stereo unspecified),0,23,-1,4,-17,1.8
CCN(CC)S(=O)(=O)c1ccc(N/N=C/c2cc(OC)c(OC)cc2OC)nc1,-3,2,-3,-14,-23,-0.5
O=C(CCNC(=O)N1CC(=O)Nc2ccccc21)Nc1ccc(Br)cc1F,8,1,12,8,-28,0.0
Cc1cc2nc(SCCOC(=O)Nc3ccc(Cl)cc3)nc(C)c2cc1C,4,12,15,1,-7,0.6
C[C@H](NC(=O)c1[nH]cnc1C(=O)Nc1ccccc1)C(=O)OC(C)(C)C,x,1,-12,-15,-8,0.1
CCc1noc(C)c1C(=O)OCC(=O)c1ccc(NC(C)=O)cc1F,13,9,-22,x,-3,0.4
Cc1nc2c(C(=O)NCc3ccco3)cnn2c(C)c1Cc1ccc(F)cc1Cl,5,0,73,14,-2,1.1
CCOc1ccc(C(=O)NCC(=O)NC(C)c2ccc(-n3ccnc3)cc2)cc1OCC (stereo unspecified),-5,-5,20,5,-11,0.3
Cc1cc(C)c(S(=O)(=O)c2ccccc2Cl)c(=O)[nH]1,-2,6,-19,5,-5,2.5
COc1ccc(CN2C(=O)c3ccccc3C2c2nnnn2C(C)C)cc1OC (stereo unspecified),0,2,x,x,x,-0.9
NC(=O)c1sc2nc3c(c(-c4cccnc4)c2c1N)CCC3,10,-26,6,21,-3,-0.4
COc1ccc(CCNC(=O)c2cnc(Cl)c(Cl)c2)cc1,13,2,12,-17,-11,-1.2
C=CCn1c(C)cc(C(=O)CN2C(=O)NC3(CCCc4ccccc43)C2=O)c1C (stereo unspecified),-12,u,8,13,10,0.1
CC(C)(C)c1ccc(C(=O)OCC(=O)Nc2sc3c(c2C#N)CCC3)cc1,13,8,-7,13,-8,0.2
Cc1ccccc1C(=O)NNC(=O)CN1C(=O)c2ccccc2C1=O,-1,8,6,-9,-9,2.0
O=C(COc1ccc(Cl)cc1Cl)Nc1ccccn1,5,8,15,3,-13,1.7
Cc1nc2ccc(NC(=O)C3CCN(S(=O)(=O)c4cccs4)CC3)cc2s1,-27,-18,0,-1,-7,5.4
CCOc1ccc2c(c1)C(N(CCN1CCOCC1)C(=O)Nc1ccccc1)CC(C)(C)O2 (stereo unspecified),x,-7,-10,-15,-7,-0.5
CN(C)CC1CCCCC1OC(=O)c1ccc(S(=O)(=O)N(C)c2ccccc2)cc1 (stereo unspecified),-6,-5,-7,14,-11,0.5
COc1nc(OC)nc(N(C)CCO)n1,11,0,-2,0,-4,-0.6
COCCNC(=O)CN(Cc1ccccc1)C(=O)CCC(=O)Nc1nccs1,2,-2,7,-14,-2,-0.1
COc1cc2c(cc1NC(=O)c1ccccc1-c1ccccc1C(=O)O)-c1ccccc1C2,-14,-19,6,x,-12,-0.5
Cc1ccc(CCNC(=O)CS(=O)Cc2nc(-c3cccs3)oc2C)cc1 (stereo unspecified),x,2,-11,u,-22,-0.1
CC1(C)CC(NC(=O)c2cccc([N+](=O)[O-])c2)CC(C)(C)N1,-14,18,-12,-1,-9,0.8
O=C(CCCN1C(=O)c2cccc3cccc(c23)C1=O)NCCN1CCOCC1,6,0,-15,6,-7,-1.0
COc1ccc(OC)c(-n2c(=S)[nH]c3cc(C(=O)N4CCCCC4)ccc3c2=O)c1,-3,7,6,-12,-7,0.1
O=C(COC(=O)Cc1ccc(Br)cc1)NCc1ccc2c(c1)OCO2,-1,6,-8,4,-16,1.9
Cc1cc(/C=N/NC(N)=S)c(C)n1-c1ccc(Br)cc1,0,-17,8,2,-17,0.3
Oc1ccc(C[C@H]2CN([C@@H](Cc3ccc(O)cc3)CN3CCC[C@@H]3CN3C(=S)NC[C@@H]3Cc3ccccc3)C(=S)N2CC2CCCCCC2)cc1,-4,-13,5,x,-7,-0.7
COCCNC(=O)c1cccc(NC(=O)C2=C(C)OCCS2)c1,7,5,4,-3,5,0.2
COc1cc(OC)c(NC(=O)CC(C)=O)cc1Cl,-7,-2,6,20,-18,0.4
COCCN(C(=S)Nc1ccccc1OC)C(C)c1cccs1 (stereo unspecified),-7,2,1,5,-6,-0.7
C/C(=N\O)C(=O)NCCCn1ccnc1,0,-19,-16,1,-5,-0.6
Cc1ccc(-n2nc3c(c2NC(=O)C(C)C)CS(=O)(=O)C3)c(C)c1,-3,5,-18,-17,-7,1.4
O=C(NCc1ccc2c(c1)OCO2)c1ccc(CN2CCOCC2)cc1,-1,3,12,3,-8,0.4

Compound profiles (already shown).
Cc1cc(/C=N/NC(N)=S)c(C)n1-c1ccc(Br)cc1 across the screens: CtBP-E1A inh: 0; Six1-Eya2 blk: -17; TRPML1 blocker: 8; TRPV1 PAM: 2; D2 PAM: -17; TRPML1 ag: 0.3
COc1ccc(OC)c(-n2c(=S)[nH]c3cc(C(=O)N4CCCCC4)ccc3c2=O)c1 across the screens: CtBP-E1A inh: -3; Six1-Eya2 blk: 7; TRPML1 blocker: 6; TRPV1 PAM: -12; D2 PAM: -7; TRPML1 ag: 0.1
Oc1ccc(C[C@H]2CN([C@@H](Cc3ccc(O)cc3)CN3CCC[C@@H]3CN3C(=S)NC[C@@H]3Cc3ccccc3)C(=S)N2CC2CCCCCC2)cc1 across the screens: CtBP-E1A inh: -4; Six1-Eya2 blk: -13; TRPML1 blocker: 5; TRPV1 PAM: x; D2 PAM: -7; TRPML1 ag: -0.7

Retrieved one by one from above, two records:
molecule,CtBP-E1A inh,Six1-Eya2 blk,TRPML1 blocker,TRPV1 PAM,D2 PAM,TRPML1 ag
O=C(COC(=O)Cc1ccc(Br)cc1)NCc1ccc2c(c1)OCO2,-1,6,-8,4,-16,1.9
COCCNC(=O)CN(Cc1ccccc1)C(=O)CCC(=O)Nc1nccs1,2,-2,7,-14,-2,-0.1

Carrying on:
molecule,CtBP-E1A inh,Six1-Eya2 blk,TRPML1 blocker,TRPV1 PAM,D2 PAM,TRPML1 ag
CCOc1ccccc1-n1c(SCC(=O)Nc2ccccc2C(=O)O)nc2ccccc2c1=O,-12,-19,-12,5,15,2.4
O=C1C2CCCN2C(c2ccco2)N1c1ccc(F)cc1 (stereo unspecified),-12,6,15,9,6,-0.5
C[C@@H]1CN([C@@H](C)CO)C(=O)c2cc(NS(C)(=O)=O)ccc2O[C@@H](C)CCCCO[C@H]1CN(C)C(=O)Nc1ccc2c(c1)OCO2,2,1,-3,x,5,-0.5
O=C(c1ccccc1Sc1ccccc1[N+](=O)[O-])N1CCCCC1,-11,-13,43,10,-14,0.1
CCOC(=O)N/N=C(\C)c1ccc(C)o1,x,10,-8,10,-6,0.2
CCOC(=O)c1sc(NC(=O)Cn2nnc3sc4c(c3c2=O)CCCC4)nc1C,-11,-5,7,7,-6,4.7
COc1cccc(-c2nc(C(=O)NCC3CCCO3)cc3c2[nH]c2ccccc23)c1 (stereo unspecified),-2,-9,x,-5,-24,x
Cc1ccc(S(=O)(=O)N2CCC[C@H]2C(=O)Nc2ccc(F)cc2C)cc1,-5,0,0,x,-7,-0.2
COc1cc([N+](=O)[O-])ccc1N=Nc1c(N)[nH]n(-c2ccccc2)c1=O,x,-9,0,1,1,-0.2
COc1cccc(N2CCN(CC(=O)NC(=O)NC3CCCCC3)CC2)c1,-4,-10,-2,-29,-8,2.3
CCN(CC(=O)NC(C)(C)C)C(=O)c1ccc(Br)cc1,-8,7,1,2,-12,-1.1
COC(=O)c1sccc1NC(=S)Nc1ccc(OC)cc1,4,-1,55,11,9,-0.7
O=S(=O)(c1ccc(S(=O)(=O)N2CCOCC2)cc1)N1CCCC1,12,9,4,-3,-8,0.6
O=C(CN(C(=O)Cn1nnc(-c2cccs2)n1)c1ccc2c(c1)OCCO2)NC1CCCCC1,-10,0,-15,7,-8,5.1

High-throughput results from PubChem.
